Compound activity deposited in PubChem by several laboratories.
CSC inhib: blocks cancer stem cells; cancer stem cell-like cells viability, luminescence; inhibition, % at 7.5 µM; 300,000 compounds, 1.1% hits;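 active = mean at 75% or more and at least half the replicates too; inconclusive = mean and replicates disagree; tested in HMLE shEcad cells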;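 also: 0% = median of negative and 100% = median of positive control wells; the first replicate is given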
PABP FP inh: PABP-poly(A) binding inhibition | PABP-poly(A) RNA binding, fluorescence polarization | AID 2014 | P11940 | inhibition, % at 35 µM | 290,000 compounds, 1% hits;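 active = 50% or more with normal probe brightness, or confirmed in later tests; inconclusive = above 50% with abnormal brightness, or retests that disagree; inactive = below 50% or failed in later tests; about a fifth of its hits are not listed in these tables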;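 also: calls also rest on retests at 20 µM and on dose response follow-up; controls were probe without protein and protein plus probe with vehicle; some compounds called inactive have numbers as strong as hits; many hits fall short of the cut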
Target sequence (P11940 whole entry, looked up): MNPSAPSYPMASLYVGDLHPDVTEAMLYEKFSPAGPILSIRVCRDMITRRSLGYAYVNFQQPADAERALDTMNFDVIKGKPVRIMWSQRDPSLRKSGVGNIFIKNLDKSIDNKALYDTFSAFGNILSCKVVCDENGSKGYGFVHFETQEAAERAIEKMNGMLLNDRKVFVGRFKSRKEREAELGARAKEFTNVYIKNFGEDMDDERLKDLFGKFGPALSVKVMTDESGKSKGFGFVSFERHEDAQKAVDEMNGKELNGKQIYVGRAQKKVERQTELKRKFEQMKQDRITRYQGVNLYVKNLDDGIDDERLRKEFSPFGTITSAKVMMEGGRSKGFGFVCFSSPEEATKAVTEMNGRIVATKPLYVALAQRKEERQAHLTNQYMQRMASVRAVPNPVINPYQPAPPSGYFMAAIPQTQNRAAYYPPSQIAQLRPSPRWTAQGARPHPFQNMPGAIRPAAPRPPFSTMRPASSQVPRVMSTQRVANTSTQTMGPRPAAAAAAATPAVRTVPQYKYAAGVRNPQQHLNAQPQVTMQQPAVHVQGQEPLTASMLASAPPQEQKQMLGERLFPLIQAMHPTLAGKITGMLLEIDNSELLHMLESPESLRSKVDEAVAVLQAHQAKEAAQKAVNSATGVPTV
eIF4H inh: inhibitors of RNA binding by human eIF4H. Q15056. eIF4H fluorescence polarization binding assay. inhibition, % at 35 µM. 290,000 compounds, 0.94% hits;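 active = 50% or more with normal probe brightness, or confirmed in later tests; inconclusive = above 50% with abnormal brightness, or retests that disagree; inactive = below 50% or failed in later tests; about a fifth of its hits are not listed in these tables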;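 also: calls also rest on retests at 20 µM and on dose response follow-up; 0% = protein and probe with vehicle and 100% = probe without protein; strong numbers were not always called active; many hits fall short of the cut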
Env fusion inh: blocks HIV Env-driven cell-cell fusion | AID 651610 | HeLa-JRFL Env/CEM21 cell fusion, luciferase | inhibition, % at 12.3 µM | 360,000 compounds, 1.1% hits;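 active = mean replicate inhibition score of at least 50 and every replicate individually at or above 50; inconclusive = only one of the two criteria met; inactive = mean below 50 and not all replicates reaching 50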;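 also: 0% = plate neutral controls and 100% = maraviroc near 300 nM; one replicate is shown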
Yeast UUG start: alters start codon recognition fidelity in yeast. 350,000 compounds, 0.13% hits. AID 602363. activity score, % at 18.7 µM. S. cerevisiae UUG-firefly luciferase reporter, luminescence/redox ratio;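 active = replicate mean at a twofold rise or more, about +100% in these data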;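 also: firefly luciferase made from a UUG start codon reports start codon fidelity; reporter light over untreated wells divided by growth signal over untreated wells; some hits fall short of that in this replicate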
Rce1 inh: inhibitors of yeast Ras-converting enzyme. calls only. yeast membranes, quenched prenylated peptide cleavage fluorescence. Q03530. 290,000 compounds, 0.27% hits;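 active = fall in fluorescence gain of 50% or more versus controls, with final raw signal at or below 3038400; inconclusive = same 50% fall but final raw signal above 3038400; inactive = fall in fluorescence gain under 50%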;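 also: plate controls were neutral control wells for no effect and wells lacking membranes for full effect; tested at 10 µM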
MT1-MMP act inh: MT1-MMP (human) activation inhibition. 360,000 compounds, 0.061% hits. GFP/RFP ratio change, % at 20 µM. HT1080 RFP-PRO-GFP cells, GFP/RFP ratio fluorescence, overnight; percent of plate control window, DMSO zero. P50281;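 active = GFP/RFP ratio change of at least 30% with cell ATP level not reduced by more than half and red fluorescence within 50% of control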; also: strong numbers were not always called active
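Material: RFP-PRO-GFP reporter HT1080 cells. Dosing: single-point 20 µM compound, 1% DMSO. Controls: DMSO and RFP-L50D-GFP cell wells. Timing: cells overnight before dosing, compound overnight, 37 °C, 5% CO2. Measure: GFP/RFP fluorescence ratio.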
eIF4H inh retest: also measured in eIF4H inh; calls as there; inhibition, %; compound at 20 µM; confirmation average;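 mean of two retest wells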
PABP FP inh retest: also measured in PABP FP inh; calls as there; inhibition, %; compound at 20 µM; confirmation repeats;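 mean of two retest wells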
MT1-MMP act inh RFP: also measured in MT1-MMP act inh; calls as there; RFP signal change, %; measured here: RFP expression control read;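 0 = vehicle wells; hits needed this value within 50% of zero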
An asterisk follows results filed as active; i = inactive; ? = inconclusive; nt = no result given; & = joins results of further samples; ! = not confirmed by another sample.

SMILES	CSC inhib	PABP FP inh	eIF4H inh	Env fusion inh	Yeast UUG start	Rce1 inh	MT1-MMP act inh	MT1-MMP act inh RFP	others
Cc1cccc(-c2nc(CS(=O)CC(=O)NCc3cccs3)c(C)o2)c1 (stereo unspecified)	-7.0	-4.2	-4.7	18.6	-21.2	i	2.9	2.5
COc1ccc2ccc(O)c(CN3CCN(S(=O)(=O)c4cc([N+](=O)[O-])ccc4C)CC3)c2c1	0.5	nt	nt	nt	12.0	nt	-2.6	-1.2
COc1ccccc1C(=O)NC(=O)COC(=O)CNC(=O)c1ccc(Cl)cc1Cl	-6.9	nt	nt	21.7	6.3	i	6.9	1.5
CC1=CC2=NC(=O)/C(=C\c3ccc(-c4cccc(Cl)c4)o3)C(=N)N2O1	-4.1	-3.6	28.1	-49.3	nt	i	-16.7	-8.0
CC(C)OC(=O)c1cc2c(=O)[nH]c(C(Cl)(Cl)Cl)nc2o1	-3.0	2.1	-7.2	6.6	nt	nt	5.2	3.8
COc1ccc(N2CCN(C(=S)NC(=O)c3cccs3)CC2)c([N+](=O)[O-])c1	27.3	-4.4	-0.2	5.7	-27.0	i	6.6	1.3
Cc1cccc(C)c1C(O)c1ncc(-c2cccc(C(F)(F)F)c2)[nH]1 (stereo unspecified)	nt	nt	nt	-4.8	-17.7	nt	4.7	-5.8
O=S(=O)(NCc1ccccc1Cl)c1ccc(-n2cccn2)cc1	-17.8	1.9	-7.1	-2.6	-14.7	i	-2.0	-4.2
O=C(CSc1ncnc2c1cnn2-c1ccccc1)NC1CCS(=O)(=O)C1 (stereo unspecified)	nt	nt	nt	-13.8	-15.9	nt	0.4	-7.3
CC(OC(=O)c1ccccc1NS(=O)(=O)c1cccc(C(F)(F)F)c1)C(=O)N(C)Cc1ccccc1 (stereo unspecified)	17.8	17.2	-4.4	40.7	nt	i	-5.8	-9.9
Cc1ccc(NC(=O)CCN2C(=O)C3CC=CCC3C2=O)cc1Cl (stereo unspecified)	nt	nt	nt	0.8	-13.3	nt	5.2	0.8
CCOC(=O)c1ccc(NC(=O)c2cc(F)c(F)cc2Cl)cc1	-8.1	-11.1	-0.4	-0.9	4.9	i	2.7	-2.4
CCOC(=O)N1CCN(C(=O)C(CC(C)C)NS(=O)(=O)c2ccc(C)cc2)CC1 (stereo unspecified)	nt	nt	nt	-2.7	-1.2	nt	4.4	2.6
CCCN1CCC(NC(=S)Nc2ccc(OC)c(OC)c2)CC1	-4.9	3.5	-3.9	2.3	-27.8	i	-0.8	4.2
Cc1cccc(C)c1NC(=O)CNC(=O)C(C)N1CCN(c2cccc(Cl)c2)CC1 (stereo unspecified)	nt	nt	nt	-3.6	-12.3	nt	0.2	-1.0
COc1ccc(C)cc1NC(=O)CNC(c1ccccc1)c1ccccc1	43.9	9.7	-1.2	11.3	-21.3	i	-1.6	-3.5
CCOC(=O)[C@@H]1[C@H]2COc3ccccc3[C@@H]2N2C(=O)N(c3cccc(Cl)c3)C(=O)[C@]12C	-13.7	5.2	-11.8	33.3	-23.4	i	-5.3	-3.1
O=C(COC(=O)CCC(=O)c1ccc(Cl)cc1)NCc1ccco1	-10.3	nt	nt	14.7	nt	i	nt	nt
COc1cccc(C(=O)/C(C#N)=N/Nc2cccc(-c3ccnc(C)n3)c2)c1	24.1	13.6	4.4	20.2	nt	i	-6.1	-16.8
O=C(O)c1c(Cl)c(Cl)c(Cl)c(Cl)c1C(=O)N1CCOCC1	nt	29.5	4.3	nt	-9.0	i	-0.4	4.1
Cc1ccc(S(C)(=O)=O)cc1C(=O)N1CC(C(N)=O)Oc2ccccc21 (stereo unspecified)	-6.1	4.9	-0.8	6.2	-6.0	i	1.0	2.7
COC(=O)Nc1ccc2c(c1)N(C(=O)CCN1CCOCC1)c1ccccc1S2	0.1	12.1	2.8	25.3	-23.4	i	-4.5	0.5
COC(=O)CNc1ccc2c(c1)OCO2	nt	5.6	64.6	nt	-2.8	i	-67.1	2.4	eIF4H inh retest=12.2;PABP FP inh retest=11.3
CCC(=O)NC(c1ccc([N+](=O)[O-])cc1)c1c(O)ccc2ccccc12 (stereo unspecified)	nt	-8.7	3.3	-50.8	nt	i	-1.6	-9.9
CNC(=O)c1cc(C(=O)c2ccccc2C(F)(F)F)c[nH]1	-2.0	-4.7	-11.2	-6.2	nt	i	0.9	-2.6
C[n+]1c2n(c3ccccc31)N=C(c1ccccc1)CS2	-12.0&4.1	-3.9&7.6	-9.5&-4.2	60.9*!	-26.8	i	0.3&0.1	-14.2&-6.9
Oc1ccc(NCc2ccccc2OCc2ccccc2F)cc1	22.1	12.3	36.2	nt	-29.2	i	22.5	11.2
O=C(NCCc1nc2ccc(Cl)cc2[nH]1)C1CCC(=O)N(Cc2cccc(F)c2)C1 (stereo unspecified)	-4.9	14.1	-0.5	11.7	-15.0	i	-2.7	-1.4
COC(=O)C1=C(N)OC2=C(C(=O)CC(C)(C)C2)C1c1ccccc1OCC#N (stereo unspecified)	-1.9	-4.4	-1.3	8.4	nt	i	1.2	3.6
CN(C)CC(=O)N1CCc2ccccc2C1	-7.0	-14.5	17.6	6.9	nt	i	0.9	4.4
O=C1C2CCCN2C(=O)N1CCCCN1CCN(c2ccc(F)cc2)CC1 (stereo unspecified)	-15.8	-8.5	-10.2	6.1	-16.3	i	3.0	-0.9
CCOC(=O)c1c(NC(=O)C(=O)N/N=C/c2ccc(O)c(OC)c2)sc2c1CCCCC2	45.8	16.9	-0.3	-29.1	nt	i	-3.2	-2.5
O=C(CCCCCN1C(=O)CCC1=O)Nc1ccc(Br)cc1F	-14.2	9.4	-2.7	nt	-9.9	i	3.4	-1.6
CCN1CCN(C(c2ccccc2)c2sc3nc(C)nn3c2O)CC1 (stereo unspecified)	5.8	3.0	-9.2	29.2	-16.2	i	3.7	6.1
COc1cc2c(N3CCOCC3)cc(O)c(CC(=O)Nc3ccccc3)c2cc1OC	1.7	3.3	29.0	-6.4	-15.2	i	1.7	-1.9
COc1cc(Cl)c(C)cc1NC(=O)COC(=O)/C=C/c1c(C)nn(C2CCS(=O)(=O)C2)c1Cl (stereo unspecified)	-16.6	16.3	4.4	nt	nt	i	-4.8	-3.1
CC(C)C[C@@H](COc1ccccc1)N1CCN(CCc2ccccc2)CCC1=O	5.9	1.4	-7.3	15.9	-23.4	i	-1.6	-13.2
O=S(=O)(c1cc(Cl)cc(Cl)c1)N1CCC2CC1c1cc(Cl)ccc12 (stereo unspecified)	nt	nt	nt	7.3	-23.6	nt	-0.5	-6.6
CN1CCc2c(sc(NC(=O)c3ccc(C(=O)c4ccccc4)cc3)c2C(N)=O)C1	-4.8	-8.5	-13.8	nt	-9.1	i	-15.3	1.3
CC(C)(C)C(=O)Nc1sc2c(c1-c1nc3ccccc3[nH]1)CCCC2	-6.5	-2.8	1.0	nt	-10.4	i	-6.9	-4.8
Cc1cccc(NC(=O)COC(=O)c2cccs2)c1C	8.1	2.4	-1.1	-8.2	-17.9	i	0.8	1.1
CC(C)(C)c1nn(-c2ccccc2)c2nc(Cl)c(C=O)cc12	-3.9	-10.1	-2.6	nt	-7.0	i	0.8	7.1
Cc1cc(/C=C2\C(=N)N3N=C(S(C)(=O)=O)SC3=NC2=O)c(C)n1Cc1ccccc1	nt	-4.9	10.8	22.2	nt	i	-0.3	-2.0
CCOc1ccc(NC(=O)C(=O)NCCN2CCN(S(=O)(=O)c3ccc(C)cc3)CC2)cc1	-2.6	0.4	0.6	13.0	-3.3	i	-0.1	-2.3
CC(=O)Nc1ccc(C(=O)NNC(=O)c2csc(N3CCOCC3)n2)cc1	nt	nt	nt	-8.5	-22.5	nt	1.4	4.0
O=C(NCc1cccnc1)c1c[nH]c2cc3c(cc2c1=O)OCCO3	-0.4	-14.8	-10.2	74.6*	-12.2	i	4.0	-10.8
Cn1c(=O)[nH]c2sc3c(c2c1=O)CC(C)(C)OC3	4.9	-13.3	0.2	nt	5.2	i	1.2	-0.8
CCC(c1nnnn1C1CCCC1)N1CCN(c2ccccc2F)CC1 (stereo unspecified)	-5.6	-1.3	9.1	nt	1.1	i	-0.6	-5.1
COc1ccc(Oc2nnc(-c3ccc(C)cc3)c3ccccc23)cc1	10.2	-3.9	2.0	nt	-22.9	i	1.1	-6.3
O=C(CCc1nc2ccccc2c(=O)[nH]1)NCC(=O)Nc1ccc(F)c(F)c1	-17.2	nt	nt	-4.4	-18.5	i	-4.2	1.6
CCc1ccc(CNC(=O)CCCC(=O)n2nc(C)c3ccccc32)cc1	0.6	23.0	-8.6	-61.5	-17.5	i	1.2	5.3
COc1ccc(NC(=O)CNC(=O)C23CC4CC(CC(C4)C2)C3)c(OC)c1	6.5	nt	nt	-0.5	1.5	i	-0.7	-1.1
O=C(CCN1C(=O)C2C3CC(C(Br)C3Br)C2C1=O)OCC(=O)c1cccc([N+](=O)[O-])c1 (stereo unspecified)	-1.6	5.5	-9.9	0.8	nt	i	0.3	6.8
COC(=O)c1c(NC(=O)COC(=O)c2ccccn2)sc(C)c1C	-10.5	nt	nt	-2.7	-15.2	i	1.2	0.5
CCOc1nc(-c2ccccc2)ccc1-c1noc(COc2ccccc2)n1	-9.2	-6.1	2.4	nt	-13.1	i	1.6	1.8
O=c1/c(=C/c2ccccn2)sc2nc3ccccc3n12	-13.8	?	?	nt	nt	i	-3.7	3.6
COc1ccc(C)cc1S(=O)(=O)Nc1cccc(Cl)c1	nt	-10.0	-8.0	nt	-22.2	i	0.1	-1.0
COc1ccc(-c2nc3c(c(SCC(=O)N4CCOCC4)n2)Cc2c(CO)cnc(C)c2O3)cc1	7.6	nt	nt	17.8	-3.8	i	11.2	5.9
CC(C)N(C(=O)CSc1nnc(Cc2csc(Nc3ccccc3)n2)o1)C(C)C	-6.0	1.7	-3.5	11.7	-17.0	i	6.7	-3.0
COc1ccc2cc(-c3cccnc3)ncc2c1	-17.0	nt	nt	-74.8	6.5	nt	5.8	4.3

(list continues)
SMILES	CSC inhib	PABP FP inh	eIF4H inh	Env fusion inh	Yeast UUG start	Rce1 inh	MT1-MMP act inh	MT1-MMP act inh RFP	others
Cn1c(=O)cc(SCC(=O)NCCCN2CCOCC2)c2ccc(Cl)cc21	-9.6	-11.1	-6.0	-1.7	-18.4	i	-0.7	3.6
CCn1cc(CCCC(=O)NCc2cccnc2)c2ccccc21	-3.4	-5.5	1.1	-1.9	-13.6	i	0.3	2.6
COc1ccc(N(CC(=O)N2CCN(Cc3ccccc3)CC2)S(C)(=O)=O)cc1OC	-6.9	-6.0	-1.5	-27.5	-13.8	nt	-0.7	-0.9
O=C(O)c1cc2n(n1)C(C(F)(F)F)CC(c1ccco1)N2 (stereo unspecified)	-6.9	-5.8	3.1	1.7	-5.5	nt	-4.4	-6.4
COC(=O)c1ccc2c(=O)n(-c3ccccc3F)c(=S)[nH]c2c1	0.2	-7.1	13.4	-27.0	nt	i	1.2	-7.8
CCOc1cccc(NC(=O)C2CC(=O)N(C)C(=Nc3cccc(F)c3)S2)c1 (stereo unspecified)	0.0	-12.3	-3.4	nt	-0.2	i	5.3	-2.1
O=C(CN1CCN(S(=O)(=O)c2ccccc2F)CC1)Nc1ccccc1C(=O)c1ccccc1	24.0	-3.1	-3.9	34.8	-25.7	i	-15.6	-18.7
